# Screening data (PubChem BioAssay)
# FLuc inhib CS – counter-screen for luciferase assay inhibitors: firefly luciferase inhibition; P08659; ATPLite firefly luciferase biochemical luminescence, 10 min; inhibition, % at 10 µM; 1.5% of 200,000 active; AID 1006;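 active = inhibition above about 50% when tested at 10 µM, limit read from the data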
# STAT1 blocker – reduces IFN-gamma driven STAT1 reporter signal. NIH 3T3 STAT1-luciferase reporter, luminescence. 0.35% of 200,000 active. inhibition, % at 5.5 µM. AID 920;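 active = inhibition above a set limit, the mean inhibition across all tested compounds plus 3 SD, cut at about 34% in these data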;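 note: 0% = IFN-gamma with DMSO and 100% = IFN-gamma with 300 µM nifuroxazide; values of inactives mirror those of a sister screen read the other way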
# Hsp70 act – switches on Hsp70 transcription; HeLa Hsp70 promoter luciferase reporter, luminescence; scaled: vehicle 0, proteasome-inhibitor control 100%; 0.04% of 200,000 active; activation, % at 10 µM;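 active = activation above the mean across all tested compounds plus 3 SD, cutoff set per campaign, cut at about 5.5% in these data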;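 note: 100% = MG132 at 30 µM as the positive control and 0% = DMSO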
# Active calls of the source: *. Not all compounds are listed; rates above refer to the full screens.
# Start of the listing, in advance (2 entries):
1: O=C(O)[C@@H]1CCCC[C@@H]1C(=O)N1CCc2ccccc2C1CN1C(=O)c2ccccc2C1=O (stereo not given in full)
2: CCN1/C(=C/c2ccc3cc(C)ccc3[n+]2CC)Sc2cc(C)c(C)cc21

assay / compound,1,2
FLuc inhib CS,-5.1,-6.0
STAT1 blocker,23.9,17.3
Hsp70 act,-0.5,-0.3

# The whole of this part, repeating the preview:
1: O=C(O)[C@@H]1CCCC[C@@H]1C(=O)N1CCc2ccccc2C1CN1C(=O)c2ccccc2C1=O (stereo not given in full)
2: CCN1/C(=C/c2ccc3cc(C)ccc3[n+]2CC)Sc2cc(C)c(C)cc21
3: CN1/C(=C\C=[N+](C)c2ccccc2)C(C)(C)c2ccccc21
4: c1ccc(-c2ccc(-c3cn4c(n3)CCC4)cc2)cc1
5: CCN1CCS/C1=C\C=C\C1=[N+](CC)CCS1

assay / compound,1,2,3,4,5
FLuc inhib CS,-5.1,-6.0,-4.1,65.2*,-1.1
STAT1 blocker,23.9,17.3,32.0,-26.2,29.1
Hsp70 act,-0.5,-0.3,-0.2,-0.1,-0.2

# Complete entries as entered above. Order of screens: FLuc inhib CS	STAT1 blocker	Hsp70 act
# O=C(O)[C@@H]1CCCC[C@@H]1C(=O)N1CCc2ccccc2C1CN1C(=O)c2ccccc2C1=O (stereo not given in full) across the screens: -5.1	23.9	-0.5
# c1ccc(-c2ccc(-c3cn4c(n3)CCC4)cc2)cc1 across the screens: 65.2*	-26.2	-0.1

# The list continues.
6: CCn1c(/C=C/N(C)c2ccccc2)[n+](CC)c2ccc(Cl)cc21
7: CCCCCCCn1c2c(c(=N)c3ccccc31)CCC2
8: CCCN(CCC)C1=CC(=[N+]2CCCC2)CC(C)(C)C1
9: Cc1nc2ccccc2c(-c2ccccc2)c1CC(=O)O

assay / compound,6,7,8,9
FLuc inhib CS,-3.9,-6.4,-8.9,-8.2
STAT1 blocker,29.1,27.8,27.7,5.5
Hsp70 act,0.0,-0.1,-0.3,-0.4
